Screening results (PubChem)
Vaccinia Venus: inhibitors of vaccinia virus (Venus reporter); Vaccinia virus Venus reporter expression, fluorescence; Potency, µM (titrated, usually from 36.5 µM), for the others: at the top dose activity change, negative = inhibition, hits mostly inhibitors; hit rate 0.46% among 330,000; active means well fitted inhibition curve with a large enough effect; inconclusive means small, poorly fitted or top-dose-only effect; inactive means no such curve, though single readings can be large or run the other way; tested in A549 cells; further: nearly all actives have a fitted effect of over 30% in size; inactives centre near -10
Vaccinia mCherry: inhibitors of vaccinia virus infection (mCherry reporter signal) | Vaccinia virus mCherry reporter infection, fluorescence; about a quarter of the inactives have no number | Potency, µM (highest dose often 36.5 µM), for inactives: top-dose activity change, negative = inhibition, most hits filed as inhibitors | hit rate 0.63% among 310,000 | AID 720579; active = well fitted inhibition curve with a large enough effect; inconclusive = small, poorly fitted or top-dose-only effect; inactive = no such curve, though single readings can be large or run the other way; tested in A549 cells; further: nearly all actives have a fitted effect of over 35% in size; inactives centre near -10
* = called active by the depositor; i = inactive; ? = inconclusive; nt = not tested or not shown; & = joins results of further samples; [ ] = remark or other dose. On the % scale 0 is the no-effect control and ±100 the full control effect; potency means the concentration at half of the fitted maximal effect.

SMILES	Vaccinia Venus	Vaccinia mCherry
CC1CCN(S(=O)(=O)CCNC(=O)c2ccc(F)cc2)CC1	-5%	?
CN(C)C(=O)CCC(=O)N1CCCC(C(=O)c2ccc(C(F)(F)F)cc2)C1 (stereo not drawn)	-9%	-2%
CCOC(=O)C1CCN(c2ncnc3c2c(-c2ccccc2)cn3-c2ccc(C)cc2)CC1	-2%	i
CN1/C(=C/C2CC(=O)N(c3cccc4ccccc34)C2=O)C(C)(C)c2ccccc21 (stereo not drawn)	8%	-12%
COc1ccc(OC)c(C2Nc3c(C)cc(C)cc3-c3cc(C)nn32)c1 (stereo not drawn)	-8%	i
O=C(Nc1ccccc1N1CCCCC1)c1ncoc1-c1ccc(F)cc1	-5%	-11%
CC(C)CC(=O)NCC1(N(C)C)CCCCC1	5%	-20%
O=C1NC(=O)c2cc([N+](=O)[O-])cc3cccc1c23	15%	10%
COc1cccc(CC(=O)Nc2ccc3nc(C)sc3c2)c1	-4%	-12%
Cc1cccc(N(CC(=O)NCC2CCCO2)C(=O)CCC(=O)Nc2nccs2)c1 (stereo not drawn)	6%	-4%
COc1ccc(NS(=O)(=O)c2cccc(C(=O)N(C)Cc3ccc(SC)cc3)c2)cc1	-28%	?
Cn1c(SCC(=O)N2CC(=O)Nc3ccccc32)nnc1C(F)(F)F	-13%	i
CC(C)c1ccccc1NC(=O)COC(=O)Cc1c[nH]c2ccccc12	-4%	-15%
COc1cc(C(=O)Nc2cc(C(F)(F)F)ccc2N2CCOCC2)ccc1OCC(=O)N1CCOCC1	-18%	-21%
CNc1cc(CSc2ccc(Cl)cc2)nc(C)n1	-10%	i
C=CCn1c(COc2cccc(C)c2)nnc1SCC(=O)NC(=O)NCc1ccco1	-2%	?
COc1ccc(/C=C/C(=O)OCC(=O)N(C)CC(=O)Nc2ccc(C)cc2)c(OC)c1	-15%	-14%
COc1ccc(CNC(=O)C(=O)N2CCC3(CC2)OCCN3S(=O)(=O)c2ccc(C)cc2)cc1	-22%	-30%
C/C(=N/NC(=O)c1ccco1)c1cccc(NC(=O)c2ccc(C)s2)c1	-14%	-6%
COc1ccc(CN(C)C(=O)Cc2c[nH]c3ccccc23)c(OC)c1OC	-13%	-9%
O=C1Cc2ccccc2C1=C1C=c2ccccc2=C1	14%	-14%
Fc1ccc(CSc2nnc(Cc3sc(-c4ccccc4)nc3-c3ccccc3)o2)cc1	-8%	nt
COc1ccc(/C=C/c2ccncc2)cc1OC	-6%	-16%
CCCCC1=CC2=CC(=O)C(C)(OC(=O)CC)C(=O)C2=CN1c1cccc(C#N)c1 (stereo not drawn)	-16%	i
Cc1ccccc1NCc1nc2ccccc2n1CCOc1ccccc1	-13%	-9%
O=C1C(Cl)=C(Nc2ccc3cn[nH]c3c2)C(=O)c2ccccc21	8.9µM*	?
CC1CCOC2(O1)C(=O)N(CN1CCN(c3ccccc3F)CC1)c1ccccc12 (stereo not drawn)	-16%	-15%
O=C1CC(=O)Nc2cc(S(=O)(=O)Nc3cccc(Br)c3)ccc2N1	-5%	-7%
COc1ccc(CNC(=O)CCNC(=O)C2CCN(S(=O)(=O)c3ccc(OC)cc3)CC2)cc1	-21%	-16%
CCOCC(=O)Nc1cc([N+](=O)[O-])ccc1C	-15%	-17%
CC(N=C1NS(=O)(=O)c2ccccc21)C(=O)NCc1ccc(F)cc1 (stereo not drawn)	-9%	0%
Fc1ccc(-n2ncc3c(N4CCC(Cc5ccccc5)CC4)ncnc32)cc1	-3%	6%
COc1ccc(-c2ccc(C(=O)NCc3ccc(F)c(F)c3)c3occc23)c(C)c1	-13%	-5%
O=C(/C=C/c1cccs1)N1CCN(c2ccc(O)cc2)CC1	-18%	-26%
O=C(NNc1cc(C(F)(F)F)nc2ccccc12)Nc1cccc(Cl)c1	-16%	?
CCOC(=O)c1[nH]c(C)c(CN(CCc2ccc(OC)c(OC)c2)C(=O)CCCC(=O)O)c1C	-9%	-8%
CCOc1ccccc1CNC(=O)c1cccc(NC(=O)c2nsc3ccccc23)c1	-16%	-12%
O=C(COc1ccc(Cl)cc1Br)NNC(=O)C(=O)N1CCCCC1	0%	i
Cn1ccc(C(=O)Nc2sc3c(c2C(N)=O)CCCCC3)n1	-6%	i
Cc1cc2nc(-c3ccc(OCc4ccccc4Cl)cc3)cc(C(F)(F)F)n2n1	-17%	-19%
O=C(N/N=C/c1c(O)n(Cc2ccc(F)cc2)c(=O)[nH]c1=O)c1ccccc1	-6%	7%
CCN1CCN(Cc2ccc(NC(=O)c3cc(NC(=O)c4ccno4)cc(OC)c3)cc2C(F)(F)F)CC1	?	-5%&-1%
CC12CCC(=O)N1C(C(=O)Nc1ccccc1N1CCCCC1)CS2 (stereo not drawn)	-7%	i
O=C1c2ccccc2C(=O)N1CCOCCN1C(=O)c2ccccc2C1=O	-8%	nt
Nc1ccc(S(=O)(=O)c2ccc(N)c(N)c2)cc1	-20%	?
O=C(CCCn1c(=O)[nH]c2ccccc2c1=O)NCCSCc1ccccc1	-11%	-17%
CCc1nnc(NC(=O)C2CCN(C(=O)c3ccccc3C)CC2)s1	-20%	-15%
O=C(NCc1cccs1)c1nc2ncccn2n1	-9%	-8%
CC(=O)NCCCc1nc2ccccc2n1Cc1cc(C)ccc1C	-10%	i
COc1ccccc1CNC(=O)CN1CCC(n2cnc3cc(F)ccc32)CC1	-5%	-3%
Fc1ccc(NC(=S)Nc2cccc3cnccc23)cc1	6%	-4%
Cc1nn(C)c(C)c1CNC(=O)Nc1cccc(Cl)c1	-10%	4%
CC(C)Oc1ccc(CNS(=O)(=O)c2ccc3c(c2)C(C)(C)C(=O)N3C)cc1	-5%	-16%
O=C(N/N=C/c1ccc(Br)s1)c1cccc([N+](=O)[O-])c1	-8%	-12%
COc1ccc(NC(=O)CN(C)C(=O)Cc2ccc(-c3ccccc3)cc2)cc1	-18%	-3%
Cc1ccc(C(NC(=O)N2CCN(C)CC2)C(Cl)Cl)cc1F (stereo not drawn)	10%	i
CC(Oc1ccccc1Cl)C(=O)N1CCOCC1 (stereo not drawn)	-1%	-14%
CC(C)C(=O)N1c2ccccc2NC2=C(C(=O)CCC2)C1c1ccc(N(C)C)cc1 (stereo not drawn)	-3%	-4%
Cc1c(NC(=S)Nc2ccccc2)c(=O)n(-c2ccccc2)n1C	2%	-9%
CCc1cc(C(=O)N=Nc2c(O)[nH]c3c(Br)cc(Br)cc23)c2ccccc2n1	-1%	-9%

Reformatted with each value named: four of the compounds above.
> Nc1ccc(S(=O)(=O)c2ccc(N)c(N)c2)cc1
  Vaccinia Venus: -20%
  Vaccinia mCherry: ?

> CC(Oc1ccccc1Cl)C(=O)N1CCOCC1 (stereo not drawn)
  Vaccinia Venus: -1%
  Vaccinia mCherry: -14%

> CCN1CCN(Cc2ccc(NC(=O)c3cc(NC(=O)c4ccno4)cc(OC)c3)cc2C(F)(F)F)CC1
  Vaccinia Venus: ?
  Vaccinia mCherry: -5%&-1%

> COc1ccc(NC(=O)CN(C)C(=O)Cc2ccc(-c3ccccc3)cc2)cc1
  Vaccinia Venus: -18%
  Vaccinia mCherry: -3%

Remaining list, next part
SMILES	Vaccinia Venus	Vaccinia mCherry
CCN1CCN(C(c2ccc(F)cc2)c2nnnn2Cc2ccc3c(c2)OCO3)CC1 (stereo not drawn)	-18%	i
O=[N+]([O-])c1ccc2ncnc(Nc3ccc4c(c3)OCCO4)c2c1	-13%	-5%
CCC(=O)N1CCc2cc(Br)cc(S(=O)(=O)CCC(=O)NCCc3ccccc3)c21	-14%	-8%
O=S(=O)(Nc1cccc(-c2ccc3nncn3n2)c1)c1cc(F)ccc1F	-7%	?
NC(=O)c1cc(-c2csc(NCCc3ccccc3)n2)ccc1O	-15%	-4%
Cc1nc2c(-c3ccccc3)c(C)nn2c(C)c1CCC(=O)NC(C)CCc1ccco1 (stereo not drawn)	-24%	?
C=CCc1cccc(/C=N/NC(=O)CCC(=O)Nc2ccc(C)cc2)c1O	?	-5%
O=C(Cc1ccccc1)c1ccc(O)cc1	1%	-16%
COc1cccc(-c2nnc(-c3ccccc3[N+](=O)[O-])o2)c1	2%[7.34 µM]	?
CC1CCN(C(=O)CSc2nnc(N)s2)CC1	-10%	i
O=C(Nc1ccccc1C(=O)OCC(=O)N1CCc2ccccc2C1)c1ccco1	0%	nt
O=C(CN1CCSC1=NCc1ccccc1)c1ccc(Cl)cc1	-15%	-26%
Cc1ccsc1CN(C)CC(=O)Nc1ccccc1C(=O)NC1CC1	-9%	-7%
CCOC(=O)CCCNC(=O)COC(=O)[C@@H]1CCCN1S(=O)(=O)c1ccc(Cl)cc1	-6%	-5%
COC(=O)C(O)(c1c(C)[nH]c2ccccc12)C(F)(F)F (stereo not drawn)	-2%	nt
O=S(=O)(c1ccc(Oc2ncnc3scc(-c4ccccc4)c23)cc1)N1CCOCC1	-8%	i
CC(C)=CCn1c2ccc(NC(=O)Nc3cccnc3)cc2c(=O)n1C	19%	3%
N#C/C(=C\c1cc([N+](=O)[O-])c(N2CCCCC2)cc1N1CCCCC1)c1nn(-c2ccccc2)c(N)c1C#N	-11%	-12%
O=c1nc(SCc2cccc(C(F)(F)F)c2)nc2ccccn12	-8%	-18%
COc1cccc(-n2c(-c3ccc(Cl)cc3)cc3c2CC(C)(C)CC3=O)c1	-11%	-6%

Some of these compounds in order of length of the SMILES, low to high:
SMILES	Vaccinia Venus	Vaccinia mCherry
Fc1ccc(NC(=S)Nc2cccc3cnccc23)cc1	6%	-4%
COC(=O)C(O)(c1c(C)[nH]c2ccccc12)C(F)(F)F (stereo not drawn)	-2%	nt
O=C1CC(=O)Nc2cc(S(=O)(=O)Nc3cccc(Br)c3)ccc2N1	-5%	-7%
C/C(=N/NC(=O)c1ccco1)c1cccc(NC(=O)c2ccc(C)s2)c1	-14%	-6%
CCOC(=O)C1CCN(c2ncnc3c2c(-c2ccccc2)cn3-c2ccc(C)cc2)CC1	-2%	i

(cont.)
SMILES	Vaccinia Venus	Vaccinia mCherry
COc1ccccc1NC(=O)Cn1nc(C)n2cccc2c1=O	-7%	-14%
COc1ccccc1C1CC(c2ccco2)=NN1c1ccccc1 (stereo not drawn)	-12%	-5%
Fc1ccc(-c2csc3ncnc(N4CCN(Cc5ccccc5)CC4)c23)cc1	-5%	0%
CSc1cccc(NC(=O)C2CC(=O)N(Cc3ccccc3)C2)c1 (stereo not drawn)	-1%	-11%
CCCCCCCCNS(=O)(=O)CCNC1CCCCC1	-14%	-3%
N#Cc1ccc(OCC(=O)Nc2cc(S(=O)(=O)N3CCCCC3)ccc2N2CCCCC2)cc1	-5%	-2%
CC1(C(=O)NS(=O)(=O)c2ccc(C#N)cc2)CCN1C(=O)CCc1ccc(Cl)cc1Cl (stereo not drawn)	-9%	13%
COc1ccc(OC)c(NC(=O)CSC2=Nc3ccccc3C3=NC(CCC(=O)NCc4ccco4)C(=O)N23)c1 (stereo not drawn)	-15%	-15%
O=[N+]([O-])c1ccc2nc(SCc3ccccc3Cl)sc2c1	-24%	-21%
O=C1C(=O)N(CCOCCO)C(c2ccccn2)/C1=C(\O)c1ccccc1 (stereo not drawn)	13%	-4%
COc1ccc(Cn2nc3n(c2=O)-c2ccccc2OC3)cc1	-14%	-7%
O=C(CCc1ccc(S(=O)(=O)N2CCOCC2)cc1)NN=C1CCCCCCC1	-7%	-9%
CCC(CC)C1C(C#N)=C(N)SC(N)=C1C#N	-7%	-9%
COc1ccc(OC)c(CN2CCN(C(=O)c3ccc(NS(=O)(=O)c4cccc([N+](=O)[O-])c4)cc3)CC2)c1	-13%	-21%
CC(C)(C)OC(=O)NNC(=O)c1ccc(Cl)cc1	-21%	nt
CC(NC(=O)C1CCCC1)c1ccc2c(c1)OCCO2 (stereo not drawn)	-7%	nt
OC(Cn1cncn1)(Cn1cncn1)c1ccc(F)cc1F	-6%&-10%	-1%&-14%
Cc1nn(CC(=O)Nc2ccc(S(=O)(=O)N(C)C)cc2)c(C)c1[N+](=O)[O-]	-1%	i
O=C(CNC(=O)c1ccc(Cl)cc1Cl)OCC(=O)c1ccc2c(c1)OCCO2	10%	5%
Nc1ccc(CSc2ccccc2)cc1	-5%	?
CC(C)OCCCNC(=O)CN1C(=O)CSc2ccc(S(=O)(=O)N3CCOCC3)cc21	-9%&2%	-7%&-18%
COc1cc(NC(=O)C2Cc3ccccc3N2C(=O)c2ccccc2)cc(OC)c1 (stereo not drawn)	1%	0%
Cc1ccc2c(c1)N(CC(=O)NCCc1ccc(Cl)cc1)C(=O)c1cccnc1O2	0%	-1%
Cc1c(Cl)cccc1Nc1nn2c(=O)c3ccc(C(=O)N(C)Cc4ccccc4)cc3nc2s1	-11%	-14%
COc1cccc(NCc2cccn2-c2nnc(N3CCC(C)CC3)s2)c1	-17%	-12%
COC(=O)C[C@@H]1CC[C@H](NC(=O)Nc2ccc(F)cc2)[C@@H](CO)O1	-1%	-9%
Cc1ccc(C)c(S(=O)(=O)NC(C)C(=O)NCc2ccccn2)c1 (stereo not drawn)	-7%	i
COc1cccc(-n2c(SCc3cccc(C)c3)nc3c([nH]c4ccccc43)c2=O)c1	-11%	-7%
Cn1nnc2cc(C(=O)NCc3ccc4c(c3)OCO4)ccc21	-15%	-3%
N#CCC1(O)C(=O)N(Cc2ccccc2)c2ccccc21 (stereo not drawn)	-2%	3%
O=S(=O)(c1ccc(F)c2ccccc12)N1CCCCC1	-22%	nt
CCOC(=O)c1c(NC(=O)Cn2c(=O)oc3ccccc32)oc(C)c1C(C)=O	-17%	nt
COc1ccc(OCC(=O)OCCN(C)C)cc1	-15%	nt
CC(C)(CNC(=O)c1cc(=O)[nH]c2ccccc12)N1CCOCC1	-7%	-15%
